RE007 growth inh – less growth of the S. pombe RE007 Vpr strain. S. pombe RE007 Vpr strain, BacTiter-Glo ATP luminescence, 24 h; control for the full effect not named in the record. Potency, µM (top dose mostly 92.2 µM), without a hit: at the top dose activity change, negative = less growth. 0.21% of 360,000 active. AID 651644; active = well fitted falling curve with a large enough effect; inconclusive = small, poorly fitted or top-dose-only effect; inactive = no such curve, though single readings can be large or run the other way;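 also: nearly all actives have a fitted effect of over 50% in size; the assay follows cell death caused by Vpr and the record does not say whether a fall means rescue or toxicity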
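Fission yeast strain RE007, carrying one chromosomally integrated HIV-1 vpr copy, was seeded at OD 0.01 in PMG+AL medium with 23 nL pinned compound. After 24 h at 30 °C and 99% humidity, viability was read by BacTiter-Glo luminescence.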
StopGo reporter – FMDV 2A StopGo reporter, luciferase signal. human cells with a luciferase reporter of 2A StopGo recoding; control for the full effect not named in the record. Potency, µM (titrated, usually from 57.9 µM), inactives show top-dose signal change, negative = less light. 1.2% of 410,000 active. AID 1159524; active = well fitted falling curve with a large enough effect; inconclusive = small, poorly fitted or top-dose-only effect; inactive = no such curve, though single readings can be large or run the other way; tested in HEK293T cells; also: nearly all actives have a fitted effect of over 45% in size; luciferase light after 4 h
Numbers without * were called inactive; [ ] = dose if it differs, or a comment. % is scaled to controls: 0 for no effect and ±100 for the full control effect; potency is read from the fitted curve at half-maximal effect. A portion of the library (hit frequency here may not be typical).

Start of the listing, in advance, two compounds:
CC1(C(=O)NCc2cccnc2)CCN1C(=O)Cc1cccs1 (stereo not drawn) was read as RE007 growth inh 7% and StopGo reporter -24%.
O=C(O)C(=Cc1ccncc1)c1cccc2ccccc12 was read as RE007 growth inh -25% and StopGo reporter -15%.

This part in full, previewed entries included:
CC1(C(=O)NCc2cccnc2)CCN1C(=O)Cc1cccs1 (stereo not drawn) was read as RE007 growth inh 7% and StopGo reporter -24%.
O=C(O)C(=Cc1ccncc1)c1cccc2ccccc12 was read as RE007 growth inh -25% and StopGo reporter -15%.
For COCCCNC(=O)c1ccc(-c2c(C)noc2C)c2ccoc12 the results were RE007 growth inh -11% and StopGo reporter 27%.
Screening CCc1nc2ccc(C(=O)NCc3ccc(OC)cc3)cn2c1N(CC)CCOC returned RE007 growth inh 0%[18.4 µM] and StopGo reporter 0%.
CCN(CC)C(=O)C1=C(C)N(CCCOC)C(=O)C(CC(=O)NCc2cccs2)C1 (stereo not drawn) was read as RE007 growth inh 15% and StopGo reporter 0%.
CN1CCN(c2ccc(CNC[C@H]3O[C@@H](n4cnc5c(=O)[nH]c(N)nc54)[C@H](O)[C@@H]3O)c(F)c2)CC1 was read as RE007 growth inh -22% and StopGo reporter 4%.
`COc1ccc(NC(=O)N(C)C[C@H]2OCCCC[C@H](C)Oc3ccc(NS(=O)(=O)c4cn(C)cn4)cc3C(=O)N([C@H](C)CO)C[C@@H]2C)cc1` gave RE007 growth inh 7% and StopGo reporter -8%.
CN(C)c1ccc(CC(=O)N2CCCCC2c2cc(C(=O)Nc3ccccc3Cl)no2)cc1 (stereo not drawn) was read as RE007 growth inh -2% and StopGo reporter 35µM*.
Screening CCOC(=O)N1CCN(C(=O)C[C@@H]2C[C@@]3(C(=O)OC)CC(C)(C)CC=C3N(Cc3cccc4ccccc34)C2=O)CC1 returned RE007 growth inh 30% and StopGo reporter -29%.
Screening CC1(c2nnc(-c3ccncc3)o2)CC(c2ccc(Cl)cc2)=NO1 (stereo not drawn) returned RE007 growth inh 27% and StopGo reporter inconclusive.
CCCc1nc2c3ccccc3ccn2c1Cc1ccc(C)cc1 was read as RE007 growth inh inconclusive and StopGo reporter 0%.
Cc1cccc(C)c1NC(=O)C(c1ccnc2ccccc12)N1CCN(CCN(C)C)CC1 (stereo not drawn) was read as RE007 growth inh -5% and StopGo reporter -5%.
COCC(=O)N(C)C[C@@H]1Oc2ncc(Br)cc2C(=O)N([C@@H](C)CO)C[C@H]1C was read as RE007 growth inh -5% and StopGo reporter -1%.
For COC(=O)[C@@]12C[C@@H](CC(=O)N3CCC(c4ccccc4)CC3)C(=O)N(CCc3ccc(OC)c(OC)c3)C1=CCC(C)(C)C2 the results were RE007 growth inh 0% and StopGo reporter -19%.
For COc1cccc(C(C)(O)c2nc(-c3ccc4c(c3)OCO4)cs2)c1 (stereo not drawn) the results were RE007 growth inh 11% and StopGo reporter inconclusive.
`CCc1nc2ccc(C(=O)NCCCN(C)C)cn2c1N(C)Cc1ccc(OC)cc1` gave RE007 growth inh inconclusive and StopGo reporter 0%.
Screening C[C@@H]1CN([C@@H](C)CO)C(=O)CCCn2nncc2CO[C@@H]1CN(C)C(=O)CCC(F)(F)F returned RE007 growth inh 10% and StopGo reporter 0%.
Screening CC(=O)NC1C(O)OC(CO)C(O)C1O (stereo not drawn) returned RE007 growth inh 7%[18.4 µM] and StopGo reporter -15%.
C[C@H]1CN([C@@H](C)CO)C(=O)CCCn2cc(nn2)CO[C@@H]1CN(C)S(=O)(=O)c1ccccc1C#N was read as RE007 growth inh -1% and StopGo reporter -12%.
`CSc1nc(S(=O)(=O)c2ccc(C)cc2)c(N2CCOCC2)s1` gave RE007 growth inh 23% and StopGo reporter 12%.
Screening CC(=O)c1ccc(S(=O)(=O)N2CCN(c3ccnc4cc(Cl)ccc34)CC2)cc1 returned RE007 growth inh -22% and StopGo reporter inconclusive.
For O=C(NCc1ccc(Cl)cc1)N1CCN(C(=O)c2ccccc2)CC1 the results were RE007 growth inh -10% and StopGo reporter -5%.
For CC(C)(C)NC(=O)CN(C(=O)CCC(=O)Nc1nccs1)c1ccccc1F the results were RE007 growth inh 7% and StopGo reporter -2%.
Screening CCCCCCn1cc(CN2CC(N3CCCCC3)CS2(=O)=O)nn1 (stereo not drawn) returned RE007 growth inh 4% and StopGo reporter 0%.

6 compounds out of the list, ordered by heavy-atom count, smallest number first.
`CSc1nc(S(=O)(=O)c2ccc(C)cc2)c(N2CCOCC2)s1` gave RE007 growth inh 23% and StopGo reporter 12%.
For O=C(NCc1ccc(Cl)cc1)N1CCN(C(=O)c2ccccc2)CC1 the results were RE007 growth inh -10% and StopGo reporter -5%.
For CC(C)(C)NC(=O)CN(C(=O)CCC(=O)Nc1nccs1)c1ccccc1F the results were RE007 growth inh 7% and StopGo reporter -2%.
Screening CC(=O)c1ccc(S(=O)(=O)N2CCN(c3ccnc4cc(Cl)ccc34)CC2)cc1 returned RE007 growth inh -22% and StopGo reporter inconclusive.
C[C@H]1CN([C@@H](C)CO)C(=O)CCCn2cc(nn2)CO[C@@H]1CN(C)S(=O)(=O)c1ccccc1C#N was read as RE007 growth inh -1% and StopGo reporter -12%.
For COC(=O)[C@@]12C[C@@H](CC(=O)N3CCC(c4ccccc4)CC3)C(=O)N(CCc3ccc(OC)c(OC)c3)C1=CCC(C)(C)C2 the results were RE007 growth inh 0% and StopGo reporter -19%.

Next part.
`CC(Nc1nc(-c2cccnc2)nc2ccccc12)c1ccccc1` (stereo not drawn) gave RE007 growth inh -9% and StopGo reporter -21%.
Cn1c(=O)[nH]c(=O)c2c1nc(Br)n2Cc1ccc(Cl)cc1 was read as RE007 growth inh 15% and StopGo reporter inconclusive.
Screening COc1ccc(C(O)c2nc(-c3cccc(O)c3)cs2)cc1 (stereo not drawn) returned RE007 growth inh 11% and StopGo reporter 15%.
`CCCCCCN1C[C@H](n2cc(C3CC3)nn2)[C@@H](O)C[C@@H]1c1ccc(Cl)cc1` gave RE007 growth inh inconclusive and StopGo reporter 2%.
For Cc1ccc(CN2CC(N3CCCC3)CS2(=O)=O)cc1 (stereo not drawn) the results were RE007 growth inh 19% and StopGo reporter 8%.
`Cc1cc(N2CCN(C(C(=O)NC3CCCC3)C(C)(C)C)CC2)c2ccccc2n1` (stereo not drawn) gave RE007 growth inh inconclusive and StopGo reporter -8%.
Screening Cc1ccc(C(O)c2ncc(-c3ccc(Cl)cc3)[nH]2)c(C)c1 (stereo not drawn) returned RE007 growth inh -3%[18.4 µM] and StopGo reporter -9%.
O=C(NCCCN1CCOCC1)c1onc(CSc2ccccc2)c1C(=O)NCCCN1CCOCC1 was read as RE007 growth inh -6% and StopGo reporter -1%.
For C[C@]1(O)CCC2C3CC[C@H]4C[C@@H](OC(=O)[C@@H](N)CCCCN)CC[C@]4(C)C3CC[C@@]21C (stereo partly drawn) the results were RE007 growth inh -13% and StopGo reporter -23%.
Screening COc1ccc(OC(=O)N(C)C[C@H]2OCc3cn(nn3)CCCC(=O)N([C@H](C)CO)C[C@@H]2C)cc1 returned RE007 growth inh 7% and StopGo reporter 0%.
`COC(=O)CC(=O)O[C@H]1C=C[C@@H](NC(=O)OC(C)(C)C)C1` gave RE007 growth inh -6% and StopGo reporter -7%.
Cc1cc2nc3ccc(N(C)C)cc3nc2cc1N was read as RE007 growth inh -21% and StopGo reporter -34%.
Screening O=C(NCc1ccco1)c1ccc2nc([C@@H]3O[C@H](CO)[C@H](O)[C@H](O)[C@H]3O)[nH]c2c1 returned RE007 growth inh 4%[18.4 µM] and StopGo reporter 16%.
Screening FC(F)(F)Oc1ccccc1C(c1nnnn1C1CCCCC1)N1CCN(C/C=C/c2ccccc2)CC1 (stereo not drawn) returned RE007 growth inh -1% and StopGo reporter 0%.
Screening COC[C@@H]1NS(=O)(=O)c2ccc(Br)cc2O[C@H]1c1ccccc1 returned RE007 growth inh 5% and StopGo reporter -15%.
Screening CCCCCCCCN1C(=O)[C@H](CC(=O)NCc2ccc(OC)c(OC)c2)C[C@@]2(C(=O)OC)CC(C)(C)CC=C12 returned RE007 growth inh 6% and StopGo reporter inconclusive.
CCc1c(-c2ccc(Br)cc2)ncn1Cc1cccc(-c2ccccc2)c1 was read as RE007 growth inh -21% and StopGo reporter inconclusive.
Screening COc1ccc(Cl)cc1NC(=O)CN(C)C(=O)CN1C(=O)NC(C)(c2ccc3ccccc3c2)C1=O (stereo not drawn) returned RE007 growth inh -8% and StopGo reporter inconclusive.
For Cc1cnc(-c2nc3ccccc3n2C(C(=O)NC(C)(C)C)c2ccncc2)cn1 (stereo not drawn) the results were RE007 growth inh 9% and StopGo reporter 32%[activator].
Clc1cccc(CNc2ccn3nc(-c4ccccc4Cl)cc3n2)c1 was read as RE007 growth inh 6% and StopGo reporter -6%.
CC(=O)c1ccc(Nc2nc(C(N)C(C)C)cs2)cc1 (stereo not drawn) was read as RE007 growth inh 0% and StopGo reporter 18%.
`Nc1ccn([C@@H]2O[C@H](CNC(=O)[C@H]3CCC(=O)N3)[C@@H](O)[C@H]2O)c(=O)n1` gave RE007 growth inh -8% and StopGo reporter -3%.
Screening CC(=O)OCCn1c([N+](=O)[O-])cnc1C=[N+]([O-])C1CCCCC1 returned RE007 growth inh -11% and StopGo reporter -28%.
For CC1(C(=O)NS(=O)(=O)c2ccc(C#N)cc2)CCN1C(=O)Cc1ccc(-c2ccccc2)cc1 (stereo not drawn) the results were RE007 growth inh 3% and StopGo reporter -7%.
`Cn1cncc1C#Cc1ccc(N2C(c3ccsc3)=Cc3ccc(F)cc3C2c2c[nH]c3ccccc23)cc1` (stereo not drawn) gave RE007 growth inh 9% and StopGo reporter -17%.
CCOC(=O)C1=CCC(c2cccs2)N(S(=O)(=O)c2ccc(C)cc2)C1 (stereo not drawn) was read as RE007 growth inh 15% and StopGo reporter 1%.
For CN(C(=O)c1ccc(NC(=O)Cc2cccc(NC(=O)C3CCN(C(=O)C4CC4)CC3)c2)cc1)C1CC1 the results were RE007 growth inh -11% and StopGo reporter -6%.
Screening Cc1cc(C)n2c(Nc3ccc4c(c3)OCCO4)c(C3CC3)nc2n1 returned RE007 growth inh -9% and StopGo reporter -6%.
Screening CCNC(=O)C1CCCN(C(=O)c2ccccc2F)CC1 (stereo not drawn) returned RE007 growth inh 11% and StopGo reporter -11%.
Screening O=C(NCc1ccncc1)c1ccc(-c2ccc(F)c(F)c2)c2ccoc12 returned RE007 growth inh -11% and StopGo reporter inconclusive.
Screening Cn1ccc2c(/C=C/c3ccc(F)cc3)cc3c(c21)C1CCC3C1 (stereo not drawn) returned RE007 growth inh 1% and StopGo reporter -11%.
`CC(=O)Nc1cccc(-c2nc3ccccc3n2C(C(=O)NC(C)(C)C)C2CC2)c1` (stereo not drawn) gave RE007 growth inh -6% and StopGo reporter 18%.
Screening c1ccc(COc2cccc(-c3cc4nc(NCCN5CCOCC5)ccn4n3)c2)cc1 returned RE007 growth inh inconclusive and StopGo reporter -8%.
`COc1cc(C(O)c2nc(-c3cccc4cccnc34)cs2)ccc1F` (stereo not drawn) gave RE007 growth inh -8% and StopGo reporter 15%.
For Nc1ccc(S(=O)(=O)Nc2nc(-c3ccccc3)cc(-c3ccccc3O)n2)cc1 the results were RE007 growth inh -15% and StopGo reporter 0%.
For CC1(Oc2cccnc2Cl)CCN(Cc2ccc(OC(F)(F)F)cc2)C1 (stereo not drawn) the results were RE007 growth inh 0% and StopGo reporter inconclusive.
For O=C(NCCN1CCC(n2c(=O)[nH]c3ccccc32)CC1)c1ccc(Cl)cc1Cl the results were RE007 growth inh -11% and StopGo reporter inconclusive.
`CCCC(=O)N1CCC1(C)C(=O)NS(=O)(=O)c1ccc(OC)cc1` (stereo not drawn) gave RE007 growth inh -2% and StopGo reporter -9%.
COc1ccc(N(C)S(=O)(=O)c2cccc(C(=O)OCC(=O)Nc3cc(C)ccc3OC)c2)cc1 was read as RE007 growth inh 0% and StopGo reporter inconclusive.
Screening CC(NS(=O)(=O)c1cccc(Cl)c1F)[C@H](O)c1ccccc1 (stereo partly drawn) returned RE007 growth inh 9% and StopGo reporter 0%.
For Cc1noc(C)c1C(=O)N1CCC1(C)C(=O)NS(=O)(=O)c1ccc(Cl)cc1 (stereo not drawn) the results were RE007 growth inh -2% and StopGo reporter 3%.
For CCN(CC)C(=O)C1=C(C)N(Cc2ccc(F)cc2)C(=O)C(CC(=O)NC2CCCCC2)C1 (stereo not drawn) the results were RE007 growth inh -30% and StopGo reporter 0%.
Screening CCNC(=O)C1(C)CCN(C(=O)c2cccs2)C1 (stereo not drawn) returned RE007 growth inh 10% and StopGo reporter 0%.
Screening COc1ccc(-c2csc(C(C)(O)c3cccc(F)c3)n2)cc1OC (stereo not drawn) returned RE007 growth inh -6%[18.4 µM] and StopGo reporter -15%.
CCNC(=O)C1(C)CCN(C(=O)C(c2ccccc2)c2ccccc2)C1 (stereo not drawn) was read as RE007 growth inh 11% and StopGo reporter -2%.
For COc1ccc(C=O)c(-c2c(CCO)sc3ccccc23)c1 the results were RE007 growth inh 22% and StopGo reporter -18%.
`Oc1ccc2c3c1O[C@H]1c4[nH]c5ccccc5c4C[C@@]4(O)[C@@H](C2)N(CC2CC2)CC[C@]314` gave RE007 growth inh -11%[18.4 µM] and StopGo reporter -12%.
COc1ccc(OC)c(NC(=O)Nc2c(O)ccc3ccccc23)c1 was read as RE007 growth inh -3% and StopGo reporter 21%.

High-throughput results: PubChem BioAssay, National Center for Advancing Translational Sciences (NCATS)
